Screens (PubChem BioAssay)
YjeE inh = displaces an ADP probe from E. coli YjeE (TsaE) | 0.05% of 71,000 active | Potency, µM | purified YjeE, fluorescence polarisation of a bound ADP probe; active = well fitted falling curve; inconclusive = weaker or top-dose-only fall, or a rising curve; inactive = flat or poorly fitted curve;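 further: top concentration of the series not given in the record; excess ADP was the control for the full effect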
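Fluorescence polarization of a BODIPY Texas Red–ADP probe (2 uM) bound to purified YjeE (10 uM) was read after 15 min room-temperature incubation with compounds. Loss of polarization marks inhibitors; ADP serves as titrated control.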
Bst PK mod = pyruvate kinase (B. stearothermophilus) modulation | partly purified Bacillus stearothermophilus pyruvate kinase, luminescence ATP production; ribose 5-phosphate activator present at AC10 | Potency, µM | 1.2% of 51,000 active | AID 361; in the data active means potency below about 11 µM; inconclusive means mostly about 12 µM to 25 µM; inactive means weaker than that;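 the screen sought inhibitors and activators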;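 further: potency means the concentration at half of the fitted maximal effect; scaled between full activation by ribose 5 phosphate and full inhibition by luteolin; about four in five hits inhibit and the cells do not say which; series up to 57 µM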
The depositor's hits bear a star; i = inactive; ? = inconclusive; . = no result given.

The opening two compounds, ahead of the listing:
canonical_smiles	YjeE inh	Bst PK mod
COc1ccc(C2C(C(=O)c3sc(C)nc3C)=C(O)C(=O)N2CCN2CCOCC2)cc1 (stereo not drawn)	i	>57
Cc1ccc2c(CC(=O)OCn3nnc4ccccc4c3=O)coc2c1	i	>57

All compounds of this part (from the top)
canonical_smiles	YjeE inh	Bst PK mod
COc1ccc(C2C(C(=O)c3sc(C)nc3C)=C(O)C(=O)N2CCN2CCOCC2)cc1 (stereo not drawn)	i	>57
Cc1ccc2c(CC(=O)OCn3nnc4ccccc4c3=O)coc2c1	i	>57
CC(=O)Oc1c(S(=O)(=O)c2ccc(C)cc2)c(C)nn1C(C)(C)C	i	>57
Cn1c(=O)c(C(=O)NC2CCCCCCC2)c(O)c2ccccc21	i	.
CC1=C(C(=O)OC2CCCCC2)C(c2cccnc2)n2nnnc2N1 (stereo not drawn)	i	>57
N#CNC(N)=Nc1cccc(Cl)c1	i	.
COc1ccc(-c2noc(CN3CCOCC3)n2)cc1OC	i	>57
COC(=O)CC1NCCNC1=O (stereo not drawn)	i	>57
O=C(NC1CCS(=O)(=O)C1)c1cn(-c2ccccc2)nc1-c1ccccc1 (stereo not drawn)	i	.
Cc1oc(C)c2c(=O)ccc3c(c12)OC(N)=C(C#N)C3c1ccc(F)cc1 (stereo not drawn)	i	>57
CCCCCCCCCCCCC(=O)N1CCCC[C@H]1CNC(=O)[C@@H](N)CCCCN	?	.
COc1cccc(N=Cc2ccc(O)cc2O)c1	i	.
CCN=C1SC(C(=O)Nc2cccc(C(=O)O)c2)CC(=O)N1CC (stereo not drawn)	i	>57
Cc1sc(CO)c(Sc2ccccc2)c1C(=O)O	i	>57
CC(=O)N1CCCc2cc(S(=O)(=O)N3CCN(c4ccccn4)CC3)ccc21	i	>57
O=C1NCC(CN(c2ccccc2)c2ccccc2)O1 (stereo not drawn)	i	>57
CCCNC(=O)Cc1ncn[nH]1	i	>57
CNc1ccc([N+](=O)[O-])cc1	?	.
CCC(C)NC(=O)CCS(=O)(=O)c1ccc2c(c1)n(C)c(=O)c(=O)n2C (stereo not drawn)	i	.
Cn1c(=O)c2c(nc(Oc3ccccn3)n2C)n(C)c1=O	i	>57
CC(=O)C1=C(NC(=O)c2ccccc2F)C[C@@H]2[C@H]1C2(C)C	.	>25.6
COc1ccccc1CN(Cc1cc2cc(C)cc(C)c2[nH]c1=O)Cc1nnnn1CC1CCCO1 (stereo not drawn)	i	>57
COc1ccccc1CNS(=O)(=O)c1cccc(S(=O)(=O)N2CCOCC2)c1	i	>57
COc1cccc(C2c3c(oc4ccc(Cl)cc4c3=O)C(=O)N2c2cc(C)on2)c1OC (stereo not drawn)	i	>57
Cc1c(/C(O)=C2/C(=O)C(=O)N(CCN3CCOCC3)C2c2ccco2)cnn1-c1ccccc1 (stereo not drawn)	i	.
O=C(NC(Cc1ccccc1)C(=O)O)c1ccccc1 (stereo not drawn)	i	>57
O=C1OCc2ccc(NC(=O)C3CCCCC3)cc21	i	>57
O=C1CCCCCN1CP(=O)(O)CCc1ccccc1	i	.
Clc1ccc(-c2cn3c(n2)CCC3)cc1	.	?
S=c1[nH]c2ncccc2o1	i	>57
CCCCN(C)C(=O)c1cn(C)c2ccc(S(=O)(=O)N(C)C)cc2c1=O	i	.
CCCCn1cnc2sc3c(c2c1=N)CCCC3	i	.
CSc1nnc2c(n1)[nH]c1c(C)cccc12	i	.
CC(=O)C(Sc1nc(-c2ccco2)nc2c1c(=O)n(C)c(=O)n2C)C(=O)N(C)C (stereo not drawn)	i	>57
CCOC(=O)c1ccccc1NC(=O)Cn1cnc2c1c(=O)n(C)c(=O)n2C	i	.
O=C(Cn1cnc2c(nnn2Cc2ccc(F)cc2)c1=O)N1CCN(c2ccccc2)CC1	i	>57
Cc1cc(Cl)ccc1Nc1sc(C(=O)c2cc3cc(Cl)ccc3o2)c(N)c1C#N	i	.
CCC/C=C(\CCC)C(NS(=O)(=O)c1ccc(-c2ccccc2)cc1)c1ccc(C(=O)OC)cc1 (stereo not drawn)	i	.
CCNc1ncc2nc(-c3cccs3)c(=O)n(Cc3cccc(OC)c3)c2n1	i	.
CC(=O)Nc1ccc(S(=O)(=O)N2CCC(c3nc4ccccc4[nH]3)CC2)cc1	i	>57
CCC1Oc2ccccc2N(CC(=O)NCCC2=CCCCC2)C1=O (stereo not drawn)	i	>57
COC(=O)[C@H](Cc1ccccc1)NC(=O)NCC1CCCO1 (stereo partly drawn)	i	>57
CN1CCc2c(sc3c2C(=O)NC(c2ccccn2)N3)C1 (stereo not drawn)	i	i
O=C(CN1CCOCC1)NC1CC2CCC1C2 (stereo not drawn)	i	>57
COc1ccc(CNC(=O)Cn2nc(-c3ccc4c(c3)OCCO4)ccc2=O)cc1	i	>57
O=C(O)CCc1ccc(-c2ccccc2)[nH]1	i	.
O=C(C1=C(O)C(=O)N(c2ncccn2)C1c1cccs1)c1ccco1 (stereo not drawn)	i	.
COC(F)(C(=O)Nc1ccc2c(c1)C(=O)NC2=O)C(F)(F)F (stereo not drawn)	i	>57
COc1ncc2nc(C)c(=O)n(CCC#N)c2n1	i	.
COc1cc(NC(=O)Nc2ccccc2)c(OC)cc1NC(=O)CN1CCCCC1	i	>57
CCC(=O)Nc1ccc(-c2nnc(SCC(=O)Nc3nccs3)n2C)cc1	i	>57
COc1ccccc1Nc1nc(C)cc(=O)[nH]1	i	>57
Cc1nnc(S(=O)(=O)c2ccc(N=Nc3c(N)nc(N)nc3N)cc2)s1	i	.
O=c1c(-c2ccccc2)nc2cnc(N3CCOCC3)nc2n1-c1ccccc1	i	.
O=S(Cc1ccc(Cl)cc1)CC(O)COc1ccc(Cl)cc1 (stereo not drawn)	i	.
CCC1Sc2ccccc2N(CC(=O)NC2CCCC2)C1=O (stereo not drawn)	i	>57
Cn1c(=O)c2c(nc(SCC(=O)Nc3ccc(N4CCOCC4)c(Cl)c3)n2C)n(C)c1=O	i	>57
CCOC(C)=O	i	.
O=C1c2ccccc2C(=O)N1CCN1CCc2ccccc21	.	>25.6
COc1ccc(C2C(C(C)=O)=C(C)N=c3s/c(=C/c4ccc5c(c4)OCO5)c(=O)n32)cc1 (stereo not drawn)	i	>57

Later entries
canonical_smiles	YjeE inh	Bst PK mod
Cn1ccnc1Sc1nc2ccccc2nc1NS(=O)(=O)c1ccccc1	i	>57
Cc1cccc(N2C(=O)CC(N3CCN(C(=O)c4ccccc4)CC3)C2=O)c1 (stereo not drawn)	i	.
COc1ccccc1N1CCN(Cc2ccc(Br)o2)CC1	i	.
COc1ccc(OC)c(NC(=O)COC(=O)c2ccc(-n3cnnn3)cc2)c1	i	>57
CCCCC(CC)COCC1CO1 (stereo not drawn)	i	.
COc1ccc(OC)c(NC(=O)c2cn(C)c(=O)c3cc(OC)c(OC)cc23)c1	i	>57
CCOC(=O)c1oc2ccccc2c1CSc1nnnn1-c1ccc(C)cc1	i	>57
C=CCn1cc(C(=O)N2CCN(C)CC2)c(=O)c2cc(S(=O)(=O)N3CCCC3)ccc21	i	.
O=C(Nc1cccc(C(=O)N2CCOCC2)c1)NC1CCCCC1	i	>57
C=CCOC(=O)CCP(=O)(CCC(=O)OCC=C)c1ccccc1	i	.
CCCCn1c2c(c3ccccc31)CCc1nonc1-2	i	.
CNC(=O)NCCN1CCCC1=O	i	>57
COc1cc(C)nc(OCCNC(=O)COc2ccc(Cl)cc2C)n1	i	>57
C=C(C)CSc1nnc(-c2cc(OC)c(OC)c(OC)c2)n1N	i	>57
CC1(C(=O)N(c2ccccc2)C(C(=O)NC2CCCC2)c2ccccn2)CC(=O)N=C2C=CC=CN21 (stereo not drawn)	i	>57

Remaining list, next part
Under each structure: YjeE inh | Bst PK mod
CCOC(=O)CNC(=O)CSc1nnc(-c2cccc(C)c2)n1-c1ccc(OC)cc1
  i | >57
CN=C1SC(CC(=O)Nc2sc(C)c(C)c2C(=O)OC)C(=O)N1C (stereo not drawn)
  i | >57
COc1cc([C@H]2[C@@H]3CCCC[C@]3(O)CCN2CC(=O)Nc2ccc(C)cc2)ccc1O
  i | >57
COc1ccc(S(=O)(=O)n2ccnc2)c2cccnc12
  i | >57
COc1cc(C(=O)N2CCCN(c3nc4cc(C)ccc4cc3C#N)CC2)cc(OC)c1OC
  i | >57
COc1cccc(-c2noc(-c3cccnc3)n2)c1
  i | .
O=C(c1cnn2ccccc12)N1CCCc2ccccc21
  i | .
N#CCSc1nnc(N)s1
  i | >57
O=c1oc2ccccc2c2c1ncn2C1CCCCC1
  i | >57
NCCN1CCN(CCN)CC1
  i | >57
CCOC(=O)N1CCN(C(=O)Cc2ccc(Cl)cc2)CC1
  i | .
CCN(CC)C(=O)C1CCCN(Cc2ccc(N(C)C)cc2)C1 (stereo not drawn)
  i | .
O=C(NCc1ccc2c(c1)OCO2)C1CCCN1C(=O)Nc1ccc(F)cc1 (stereo not drawn)
  i | >57
CCCCOCCO
  i | .
O=C1CCc2nc3sc4c(c3c(=O)n2N1)CCCC4
  i | >57
Cc1noc(C)c1-c1ccc2ncnc(N3CCC(C(=O)O)CC3)c2c1
  i | .
COC(=O)c1c(NC(=O)c2ccoc2C)sc2c1CCC2
  i | >57
N#CCCn1c(=O)c(-c2ccc(F)cc2)nc2cnc(OCc3ccccc3)nc21
  i | .
Cc1ccc2nc(N3CCC(C(=O)O)CC3)nc(-c3ccccc3)c2c1
  i | >57
O=C(NCCC1=CCCCC1)C1CCCN(S(=O)(=O)c2cccnc2)C1 (stereo not drawn)
  i | .

Single entries from above:
COC(=O)c1c(NC(=O)c2ccoc2C)sc2c1CCC2 | Bst PK mod = >57
Cc1ccc2nc(N3CCC(C(=O)O)CC3)nc(-c3ccccc3)c2c1 | Bst PK mod = >57
O=C1CCc2nc3sc4c(c3c(=O)n2N1)CCCC4 | Bst PK mod = >57

Going on with the list.
Under each structure: YjeE inh | Bst PK mod
CCOc1ccc(CN(CCO)CCO)cc1C(=O)OC
  i | >57
O=C(CSc1oc(-c2ccco2)nc1S(=O)(=O)c1ccccc1)NCC1CCCO1 (stereo not drawn)
  i | >57
O=c1c(O)c(-c2ccc(O)cc2)oc2ccc(O)cc12
  i | .
CC(C)(C)OC(=O)N1CCC(C(N)=O)CC1
  i | .
COC(=O)C(C#N)c1nc2ccccc2nc1N1CCN(Cc2ccc3c(c2)OCO3)CC1 (stereo not drawn)
  i | >57
O=C(N[C@@H](c1ccccc1)[C@@H]1C[C@H]1C(=O)NCc1ccccc1)OCc1ccccc1
  i | .
COc1cc(NC(=O)c2ccco2)ccc1NC(=O)c1ccccc1Cl
  i | >57
Cc1csc(NC(=O)CSc2nnc(Cc3cccn3C)n2-c2ccc(F)cc2)n1
  i | .
Cn1c(=O)c2c(ncn2CC(O)CNc2ccc(Cl)cc2)n(C)c1=O (stereo not drawn)
  i | >57
CCc1c(C)n2nc(C)cc2[nH]c1=O
  i | >57
Cc1nc2nc(C)c(CCC(=O)NC(C)c3ccc4c(c3)OCCO4)c(C)n2n1 (stereo not drawn)
  i | >57
Cc1nnc(SCC(C)C)[nH]c1=O
  i | >57
N#CCCn1c(=O)c(-c2cccs2)nc2cnc(Oc3ccccc3)nc21
  i | .
O=C1c2ccccc2-c2ccc(N=[N+]([O-])c3ccc4c(c3)C(=O)c3ccccc3-4)cc21
  i | .
O=C(NCCCNCc1ccccc1)c1ccccn1
  i | >57
CCS(=O)(=O)Nc1cc(-c2nc3cccnc3s2)ccc1C
  i | .
COc1ccc(-c2nnc3ccc(SC)nn23)cc1
  i | i
COc1ccc(-c2n[nH]c(=S)n2C2CCCCC2)cc1
  i | .
CCC(C)[C@@H](C(=O)Nc1ccc(OC)c(OC)c1)N1Cc2ccccc2C1=O (stereo partly drawn)
  i | .
N#CCSc1nc2c(cc1C#N)CCCC2
  i | >57
CC1=C(C#N)C(=O)OC(C)(C)C1
  . | >11.4
Cc1ccc2[nH]c3c(N4CCCCCC4)ncnc3c2c1
  . | i
O=c1cnc2cncnc2n1Cc1ccccc1Cl
  i | .
O=C(COc1ccc(Cl)cc1Cl)NCc1ccncc1
  i | .
CCn1c(CNc2cccc(Cl)c2)nnc1SCC(=O)OC1CCCCC1
  i | >57
Clc1ccccc1-c1ccc(/C=N/n2cnnc2)o1
  i | .
Cc1noc(C)c1S(=O)(=O)NCC(=O)O
  i | >57
CCC(=O)Nc1sc2c(c1C(N)=O)CCN(C(C)=O)C2
  i | .
COCCn1nnnc1C(c1ccccc1OC)N1CCN(c2ccccc2)CC1 (stereo not drawn)
  i | >57
CCCN1Cc2cccc(C(=O)N3CCN(c4cc(Cl)ccc4C)CC3)c2C1=O
  i | .

Not a retest: an excerpt of the list.
Under each structure: YjeE inh | Bst PK mod
CC1=C(C#N)C(=O)OC(C)(C)C1
  . | >11.4
Cc1ccc2[nH]c3c(N4CCCCCC4)ncnc3c2c1
  . | i
O=c1cnc2cncnc2n1Cc1ccccc1Cl
  i | .

Going on with the list:
Under each structure: YjeE inh | Bst PK mod
CCn1c(SC/C=C/c2ccccc2)nnc1-c1cnccn1
  i | >57
Cn1c(CN2CCOCC2)nc2cc(NC(=O)c3ccc(Cl)cc3)ccc21
  i | >11.4
Cc1ccc(-n2nnnc2SCC(=O)N2c3ccccc3NC(=O)C2(C)C)cc1
  i | >11.4
CCCCCCSc1ncc(C#N)c(N)n1
  i | >57
COc1ccc2c(c1)C1(Nc3ccccc3-c3nc4ccccc4n31)C(=O)N2 (stereo not drawn)
  i | >57

The list is partial (hit frequency here may not be typical).
